KCNQ2 inh – KCNQ2 potassium channel inhibitors, primary screen, cell-based, CHO-K1, FluxOR thallium flux, B-score (AID 2156); O88943; 20 min; active compounds read low; only compounds with negative scores are shown here; some inactives read as strong as hits; B-score at 10 µM; hit rate 1.1% among 310,000;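 active means fluorescence ratio B-score at most minus 3 library SDs, with starting brightness B-score within 2 library SDs, cut at about -5.5 in these data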
Target sequence (O88943 whole entry, looked up): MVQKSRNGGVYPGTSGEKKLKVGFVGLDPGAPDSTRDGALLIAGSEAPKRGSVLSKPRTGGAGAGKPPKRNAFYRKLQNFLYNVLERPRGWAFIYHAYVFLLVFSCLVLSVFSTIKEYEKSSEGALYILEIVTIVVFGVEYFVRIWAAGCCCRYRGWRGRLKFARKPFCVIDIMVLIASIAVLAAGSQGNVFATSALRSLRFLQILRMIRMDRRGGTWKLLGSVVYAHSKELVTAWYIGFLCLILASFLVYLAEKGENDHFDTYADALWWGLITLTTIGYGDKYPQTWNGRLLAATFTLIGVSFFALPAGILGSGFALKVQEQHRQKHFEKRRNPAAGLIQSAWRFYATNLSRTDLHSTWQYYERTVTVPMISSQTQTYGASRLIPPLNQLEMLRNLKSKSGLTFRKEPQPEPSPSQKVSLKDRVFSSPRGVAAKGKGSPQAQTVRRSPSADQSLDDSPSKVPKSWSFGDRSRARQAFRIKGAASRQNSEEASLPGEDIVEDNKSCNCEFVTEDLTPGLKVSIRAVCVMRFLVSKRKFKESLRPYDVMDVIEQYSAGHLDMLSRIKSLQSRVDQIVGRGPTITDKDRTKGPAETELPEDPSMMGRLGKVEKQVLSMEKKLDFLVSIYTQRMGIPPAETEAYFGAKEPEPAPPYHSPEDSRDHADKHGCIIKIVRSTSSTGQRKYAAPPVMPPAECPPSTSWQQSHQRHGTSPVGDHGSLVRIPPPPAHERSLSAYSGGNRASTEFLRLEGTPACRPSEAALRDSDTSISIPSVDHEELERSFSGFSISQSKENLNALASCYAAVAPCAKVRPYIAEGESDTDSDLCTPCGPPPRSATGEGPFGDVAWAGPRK
KCNQ2 inh baseline – recorded beside KCNQ2 inh, whose call it bears; B-score; measured here: initial fluorescence intensity artifact check;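 brightness before thallium and not channel activity; 0 = typical well and far values either way flag optical interference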
An asterisk follows results filed as active; i = inactive.

KCNQ2 inh	KCNQ2 inh baseline	canonical_smiles
i	1.1	COCCN(C(=O)c1ccc(-c2ccc(Cl)cc2)o1)c1c(N)n(Cc2ccccc2)c(=O)[nH]c1=O
i	-1.7	COC(=O)c1c(NC(=O)C2SC(=NC3CCCCC3)C(C(N)=O)=C2N)sc2c1CCCC2 (stereo not drawn)
i	0.19	Cc1ccc(C2C3=C(CC(C)(C)CC3=O)Nc3n[nH]c(C)c32)cc1 (stereo not drawn)
-5.7*	2.2*	CCOC(=O)C1(CCc2ccccc2)CCN(Cc2ccc(C(=O)OC)cc2)CC1
i	0.4	C=CCc1c(C)nc2c(-c3ccccc3)cnn2c1N1CCOCC1
i	-0.35	COCCCNc1nc2nonc2nc1N1CCC(C(C)N2CCOCC2)CC1 (stereo not drawn)
i	-0.37	Cc1ccc(N(CC(=O)N/N=C/c2cccc(Br)c2)S(C)(=O)=O)cc1
i	1.6	O=C(CCN1C(=O)c2ccccc2C1=O)Nc1ccncc1
i	1.6	CCOC(=O)c1cnc2ccc(C)cc2c1Sc1ccccc1C(=O)OC
i	2.3	CCOC(=O)N1CCN(S(=O)(=O)c2c(C(=O)N3CCCCC3)c(C)n(C)c2C)CC1

Next part
KCNQ2 inh	KCNQ2 inh baseline	canonical_smiles
i	-2.3	CCOc1ccc(N(CC(=O)Nc2ccccc2C)S(=O)(=O)c2c(C)noc2C)cc1
i	1	Cn1nnnc1NCc1ccc(Cl)cc1
i	0.22	O=C(Nc1ccc2c(c1)OCO2)c1ccc(N2C(=O)c3ccccc3C2=O)cc1
i	-0.31	O=C(CCc1nc2ccccc2c(=O)[nH]1)NNC(=O)COc1ccccc1Cl
i	-1.8	Cc1ccc(C(C)C)c(OCCN2CCc3ccccc3C2)c1
i	1.2	CC1(C)CC(=O)C2=C(C1)N(CCN1CCOCC1)C1=C(C(=O)CC(C)(C)C1)C2c1ccc(Cl)c([N+](=O)[O-])c1
i	0.65	Oc1ccccc1/C=N/n1c(COc2ccccc2)n[nH]c1=S
i	0.53	CCN(CC)CCN1C(=O)c2oc3ccccc3c(=O)c2C1c1ccccc1 (stereo not drawn)
i	-0.04	CCOCC(O)CNC(=O)c1ccc(OC2CCN(C(=O)c3cccnc3)CC2)cc1 (stereo not drawn)
i	0.81	O=C(CC1C(=O)NCCN1Cc1ccccc1)NCCC1=CCCCC1 (stereo not drawn)

Remaining list, next part.
KCNQ2 inh	KCNQ2 inh baseline	canonical_smiles
i	-1.2	C=C(C)CCOC(=O)C(CC(=O)O)NCc1ccco1 (stereo not drawn)
i	0.97	CCCCn1c(N)c(N(CC(C)C)C(=O)C2CCCO2)c(=O)[nH]c1=O (stereo not drawn)
i	-0.35	O=C(NC1=NCCS1)c1cc2ccccc2o1
i	-0.1	N#C/C(N)=C(/C#N)N=Cc1cccc(Cl)c1
i	0.22	CC1(C)CC(=O)C2=C(C1)OC(N)=C([N+](=O)[O-])C2c1ccc(F)cc1 (stereo not drawn)
i	-0.64	CCOC(=O)CC(NC(=O)c1ccc(C)cc1)c1ccc(OC)cc1 (stereo not drawn)
i	0.02	COc1ccc(CNC(=O)C2CCC(CNS(=O)(=O)c3cccc4nsnc34)CC2)cc1 (stereo not drawn)
i	3.3	COc1ccc(-c2csc(NC(=O)Cc3cccc4ccccc34)c2C(=O)O)cc1
i	-0.11	O=C(NCc1ccccc1)c1onc(CSc2ccccc2)c1C(=O)NCC1CC1
i	0.83	COc1ccc(-c2cc(C(=O)Nc3ccc(S(N)(=O)=O)cc3)c3ccccc3n2)cc1OC

The listing continues:
KCNQ2 inh	KCNQ2 inh baseline	canonical_smiles
i	-0.06	CCCOc1ccc(C2C(=O)N(C3CCCCCC3)CC(=O)N2Cc2ccco2)cc1OC (stereo not drawn)
i	0.83	Brc1ccc(COc2ncnc3ccccc23)cc1
i	-0.5	COc1ccccc1C(CC(=O)Nc1ccccc1C)c1ccc(OC(C)C)cc1 (stereo not drawn)
i	0.21	CN(CC(=O)O)S(=O)(=O)c1ccc2c(c1)NC(=O)CC(=O)N2
i	0.96	CN(C(=O)CCn1c(=S)oc2ccccc21)C1CCCCC1
i	2.2	Cc1cc(C)nc(NC(=O)c2ccc([N+](=O)[O-])o2)n1
-15*	-11*	CCN1/C(=C/c2ccc3ccccc3[n+]2CC)C=Cc2ccccc21
i	0.01	Cc1cc(NC(=O)CC(CN(C)S(=O)(=O)c2ccccc2)c2ccccc2)no1 (stereo not drawn)
i	2.3	C=CCNCC(=O)N1N=C(c2ccc3ccccc3c2)CC1c1ccc(OC)cc1 (stereo not drawn)
i	0.16	CC1=C(C)CS(=O)N(S(=O)(=O)c2ccccc2)C1 (stereo not drawn)

Next entries.
KCNQ2 inh	KCNQ2 inh baseline	canonical_smiles
i	1.3	CC(/C=N/NC(=O)c1ccc(Br)cc1)=C\c1ccccc1
i	-0.17	CCN(CC)S(=O)(=O)c1ccc(OC)c(NC(=O)CSc2cc(C)ccc2C)c1
i	0.86	O=C(COc1ccc(Cl)cc1Cl)N/N=C1\CCCc2ccccc21
i	-0.49	CCCC(=O)Nc1ccccc1NC(=O)CCC
i	-0.34	COC(=O)c1ccc(CSc2nc3ccccc3c(=O)n2CC(C)C)o1
i	1.5	O=C(Cc1c(Cl)cccc1Cl)NCCc1ccc(Cl)cc1
i	0.04	CC1(C)CC(=O)/C(=C(/O)CCCN2C(=O)c3ccccc3C2=O)C(=NC(C)(C)C)C1
i	-0.02	CN(C)S(=O)(=O)N(CC(=O)N1CCC(Cc2ccccc2)CC1)c1ccccc1
i	-1.3	CCOC(=O)C1=C(CC)OC(N)=C(C#N)C1c1ccc(OC)cc1OC (stereo not drawn)
i	-1.5	COCCNCC(O)CON=C1c2ccccc2-c2ccccc21 (stereo not drawn)

Going on with the list:
KCNQ2 inh	KCNQ2 inh baseline	canonical_smiles
i	1.2	Cc1ccc2[nH]c(C)c(CCN(Cc3cccnc3)C(=S)NC(C)(C)C)c2c1
i	-0.04	O=C(NCc1ccccc1)C1CCCN(S(=O)(=O)c2ccc(Br)cc2)C1 (stereo not drawn)
i	0.02	CCc1ccc(OCc2nnc(SCC(=O)NC3CCCCC3)o2)cc1
i	-0.02	CCOC(=O)c1cc2c(ccn2C)n1CC(=O)N1CCN(c2ccccc2)CC1
i	-1.6	CCC1=Nc2cc(C(=O)O)ccc2Sc2ccc(Cl)cc21
i	1.4	CCCCOc1ccc(Cc2n[nH]c(=S)n2N)cc1
i	0.24	Cc1cccc(C(=O)Nc2ccc3c(c2)C(=O)NC3=O)c1
i	1.1	CN(C)NC(=S)NC1(C)CCS(=O)(=O)C1 (stereo not drawn)
i	0.44	Cc1ccc(C)c(OCC(=O)N/N=C/c2c(C)nn(-c3ccccc3)c2Cl)c1C
i	-0.72	O=C(NCC(Cl)c1ccc2ccccc2c1)c1c(F)cccc1F (stereo not drawn)

(further entries)
KCNQ2 inh	KCNQ2 inh baseline	canonical_smiles
i	-0.05	CCSc1nnc(N)s1
i	-1.7	Cc1cccc2nc(-c3ccccc3)nc(N3CCC(O)(c4ccc(Cl)cc4)CC3)c12
i	-0.17	CCOC(=O)/C(C#N)=C/c1cc2ccccc2nc1N1CCOCC1
i	-0.58	O=C(Oc1ccc2c(c1)O/C(=C\c1ccncc1)C2=O)c1ccccc1
i	1	CCn1c(C)nnc1SCC(=O)Nc1ccc(C(C)=O)cc1
i	-1.4	O=C(CCc1ccc(S(=O)(=O)N2CCOCC2)cc1)N/N=C/c1cccc(O)c1
i	-0.78	CC(C/C=N/NC(=O)COc1cc(Cl)ccc1Cl)c1ccccc1 (stereo not drawn)
i	-0.79	O=C(c1ccco1)N1CCN(C(=O)C2CCN(S(=O)(=O)Cc3ccccc3)CC2)CC1
i	-2.5	Cc1ccc(Nc2cc(C)nc(NCc3ccccc3)n2)cc1
i	0.13	O=C(N/C(=C/c1cccnc1)C(=O)N1CCOCC1)c1ccccc1Br

The list goes on.
KCNQ2 inh	KCNQ2 inh baseline	canonical_smiles
i	-2.9	O=C(c1ccc(F)cc1)c1ccc(CN2C(=O)c3ccccc3C2=O)o1
i	-0.01	COC(=O)c1c(-c2cccc3ccccc23)csc1NC(=O)Cc1ccc(OC)c(OC)c1
i	-1	N#Cc1cc2c(nc1SCC(=O)Nc1sc3c(c1C#N)CCC3)CCC2
i	-0.43	CC(/C=N\N1CCN(Cc2ccc(C)cc2)CC1)=C\c1ccccc1
i	1.1	Cc1oc(-c2ccccc2)cc1C(=O)Nc1cccc(C(=O)O)c1
i	0.17	c1ccc(OCc2nn3c(Cn4nnc5ccccc54)nnc3s2)cc1
i	0.21	Cc1ccc(NC(=O)C2CCN(C(=O)c3ccc(Cl)cc3)CC2)nc1
i	0.21	Cc1onc(NC(=O)NC(=O)c2c(F)cccc2Cl)c1Br
i	0.11	CSC1=NC(C)(C)C=C(/C=C/c2c(Cl)cccc2Cl)N1
i	0.05	CCCCn1c(N)c(N(CCOC)C(=O)CSc2nnc(-c3ccc(C(C)(C)C)cc3)n2N)c(=O)[nH]c1=O

Shown as tab-separated lines: seven of the compounds above.
SMILES	KCNQ2 inh	KCNQ2 inh baseline
COC(=O)c1c(-c2cccc3ccccc23)csc1NC(=O)Cc1ccc(OC)c(OC)c1	i	-0.01
CC(/C=N\N1CCN(Cc2ccc(C)cc2)CC1)=C\c1ccccc1	i	-0.43
CCCCn1c(N)c(N(CCOC)C(=O)CSc2nnc(-c3ccc(C(C)(C)C)cc3)n2N)c(=O)[nH]c1=O	i	0.05
c1ccc(OCc2nn3c(Cn4nnc5ccccc54)nnc3s2)cc1	i	0.17
N#Cc1cc2c(nc1SCC(=O)Nc1sc3c(c1C#N)CCC3)CCC2	i	-1
O=C(c1ccc(F)cc1)c1ccc(CN2C(=O)c3ccccc3C2=O)o1	i	-2.9
Cc1ccc(NC(=O)C2CCN(C(=O)c3ccc(Cl)cc3)CC2)nc1	i	0.21

Going on with the list.
KCNQ2 inh	KCNQ2 inh baseline	canonical_smiles
i	-0.39	COCCn1nnnc1C(c1cccc(OC)c1OC)N1CCN(C2CCCCC2)CC1 (stereo not drawn)
i	1.6	COc1ccc(CCNC(=O)c2ccc(NS(=O)(=O)c3ccc4[nH]c(=O)[nH]c4c3)cc2)cc1OC
i	1.3	CNS(=O)(=O)c1ccc(CCC(=O)N2CCN(c3ccccc3OC)CC2)cc1
i	-1.4	Cc1ccc(NCc2ccc(C)s2)cc1
i	2.5	CN1CCN(C(=O)c2cc(COc3ccccc3)on2)[C@@H](c2ccccc2)C1
i	-0.13	CC1=C(C)C(OCCCl)N(c2cc(O)c(Cl)cc2F)C1=O (stereo not drawn)
i	-0.5	c1ccc(N2CCN(c3nnc(Cc4cccnc4)c4ccccc34)CC2)nc1
i	0.72	c1ccc(CN=C2NN=C(c3cc4ccccc4o3)CS2)cc1
i	0.57	CCOc1ccc(C(=O)N2CCc3cc(OC)c(OC)cc3C2)cc1OCC
i	-0.16	Cc1ccc(NC(=O)OCc2cn(-c3ccc(Cl)cc3)nn2)cc1

The results go on:
KCNQ2 inh	KCNQ2 inh baseline	canonical_smiles
i	0.39	Cc1ccc(N2CC(C(=O)Nc3ccc(S(=O)(=O)Nc4nccs4)cc3)CC2=O)cc1 (stereo not drawn)
i	-0.23	COc1ccc(OCc2ccc(/C=N\NC(=O)c3sccc3C)o2)cc1
i	1.4	CCc1ccc2c(CN3CCN(Cc4ccccc4)CC3)cc(=O)oc2c1
i	0.08	COc1ccc(-c2csc(NC(=O)C3CCN(c4ncnc5sc(C)c(C)c45)CC3)n2)cc1OC
i	1.6	O=c1[nH]c(=O)n(Cc2ccco2)c2c1C(C(F)(F)F)(C(F)(F)F)N=C(CCc1ccccc1)N2
i	-1.3	O=Cc1c(Cl)nc2ccccn2c1=O
i	-1.2	C=CCn1c(SCC(=O)Nc2ccccc2)nc2scc(-c3cccs3)c2c1=O
i	0.88	Nc1nonc1C(=O)N/N=C\c1cc2c(cc1Cl)OCO2
i	1.2	O=C(NCCCN1CCOCC1)C(=O)N/N=C/c1ccccc1
i	1.3	O=[N+]([O-])c1ccc([C@H](O)[C@H](CO)N=Cc2ccccc2O)cc1

New compounds follow.
KCNQ2 inh	KCNQ2 inh baseline	canonical_smiles
i	0.03	N#C/C(=C/c1ccc(C(=O)O)cc1)C(=O)NCc1ccccc1
i	1.1	CC(C)CNC(=O)c1cc2nc3c(c(C(F)(F)F)n2n1)CCc1ccccc1-3
i	-0.62	COc1ccc(-c2cc(C(=O)Nc3ccc(S(=O)(=O)Nc4onc(C)c4C)cc3)c3ccccc3n2)cc1OC
-5.8*	-0.16*	COc1ccc2oc(C(=O)N(Cc3ccco3)Cc3cccs3)c(C)c2c1
i	-1.5	O=S(=O)(Cc1ccc(Cl)cc1)Nc1ccc2c(c1)OCO2
i	0.53	CN1CCC(N(C)S(=O)(=O)c2ccc(NC(=O)COc3ccc(F)cc3)cc2)CC1
i	0.1	N#C/C(=C\c1ccccc1)C(=O)NC1CC1
i	-0.11	CCOc1ccc(N(CC(=O)NC(C(C)C)C(C)C)S(=O)(=O)c2ccc(OC)c(OC)c2)cc1
i	-0.6	CCCCOc1ccc(N2C(=O)CC(NCCc3ccc(S(N)(=O)=O)cc3)C2=O)cc1 (stereo not drawn)
i	-0.31	CCN(C(=O)Cc1ccc(Br)cc1)C1CCCCC1

(listing goes on)
KCNQ2 inh	KCNQ2 inh baseline	canonical_smiles
i	0.07	O=C(NCc1ccc(Cl)cc1)c1cc2ccccn2n1
i	1.4	Cc1occc1-c1nnc(SCC(=O)NCCc2ccccc2)n1Cc1ccccc1
i	-1.7	COc1cc(CN2CCNC(=O)C2CC(=O)N2CCc3ccccc3C2)cc(OC)c1 (stereo not drawn)
i	0.63	CN1CCN(CC(=O)N2N=C(c3cccs3)CC2c2ccco2)CC1 (stereo not drawn)
i	3.5	CCN(CC)C(=O)c1sc(N2C(=O)Nc3ccccc3N2O)c(C(=O)OC)c1C
i	0.14	CCc1ccccc1NC(=S)N1N=CCC1c1ccccc1 (stereo not drawn)
i	0.45	Cc1cc(C)n2c(SCc3ccccc3Cl)nnc2n1

By substructure, the compounds so far containing a CF3 group (2)
KCNQ2 inh	KCNQ2 inh baseline	canonical_smiles
i	1.6	O=c1[nH]c(=O)n(Cc2ccco2)c2c1C(C(F)(F)F)(C(F)(F)F)N=C(CCc1ccccc1)N2
i	1.1	CC(C)CNC(=O)c1cc2nc3c(c(C(F)(F)F)n2n1)CCc1ccccc1-3

Source: PubChem

Not all compounds are listed, so the mix of outcomes need not match the whole.
